TRPML1 agonist: agonists of human TRPML1 channel. Q9GZU1. TRPML1-expressing cells, Ca2+ dye fluorescence, FDSS; host cell line not named in the record; reference of the full effect not given here. activation, % (concentration not given with the values). 410,000 tested, 0.12% active. AID 624414; in the data active = activation above about 50%; inconclusive = about 30% to 50%; inactive = below about 30%; note: 0% is about no effect; the text of the record puts the active cut at 80%
Target sequence (Q9GZU1 whole entry, looked up): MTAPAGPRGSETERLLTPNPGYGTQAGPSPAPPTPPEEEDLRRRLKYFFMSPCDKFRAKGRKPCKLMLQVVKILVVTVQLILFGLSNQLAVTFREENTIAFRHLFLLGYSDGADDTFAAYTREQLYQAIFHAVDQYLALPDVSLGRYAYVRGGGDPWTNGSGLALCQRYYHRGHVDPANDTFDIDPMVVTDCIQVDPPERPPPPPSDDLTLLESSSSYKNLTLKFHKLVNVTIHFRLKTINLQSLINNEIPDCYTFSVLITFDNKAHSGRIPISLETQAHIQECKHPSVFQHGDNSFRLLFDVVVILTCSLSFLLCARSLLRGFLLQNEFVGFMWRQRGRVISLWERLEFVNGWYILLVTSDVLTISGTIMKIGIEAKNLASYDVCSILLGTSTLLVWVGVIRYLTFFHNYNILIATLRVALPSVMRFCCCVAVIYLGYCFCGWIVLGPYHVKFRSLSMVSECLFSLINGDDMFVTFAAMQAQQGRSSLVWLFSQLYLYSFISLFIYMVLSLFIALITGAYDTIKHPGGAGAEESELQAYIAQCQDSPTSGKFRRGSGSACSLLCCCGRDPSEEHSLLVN
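Cells: TRPML1-DL, 1X Tet inducer, ~16 h at 37 degrees C/5% CO2. Dye: ABD Ca8 no-wash + quencher, 45-90 min RT. Read: 10 s baseline, compound add, 110 s agonist phase; 54-4 EC80 (4uM final), 110 s antagonist phase.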
PINK1 modulator: changes PINK1 expression | Potency, µM (doses to about 76.6 µM), for the others: at the top dose activation (PINK1 increase), actives largely listed as activators | PINK1 immunofluorescence, high-content cytometry, 24 h | 410,000 tested, 0.2% active | AID 624263; active = well fitted activation curve with a large enough effect; inconclusive = small, poorly fitted or top-dose-only effect; inactive = flat fitted curve, though single readings scatter; cell line not stated here;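 note: potency is the fitted concentration of half-maximal effect; % of control where 0% means no effect; nearly all actives have a fitted effect of over 65% in size; a mitochondrial uncoupler was the plate control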
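Stable cell line, 250 cells/well, 12 h attachment; compounds pinned at 5 concentrations, 24 h; CCCP control. Fixed with nuclear dye, primary antibodies 12 h at 10 degrees C, secondary plus cell stain; laser-scanning cytometer read.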
D2 PAM: positive allosteric modulators of human D2 dopamine receptor; P14416; potentiation, % (concentration not given with the values); DiscoveRx D2 beta-arrestin cells, luminescence, 90 min; 100% = 57 uM dopamine signal; AID 624464; 360,000 tested, 0.23% active; active = potentiation of 50% or more; inconclusive = 30% to 50%; inactive = 30% or less;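 note: compound concentration not given in the record; tested on top of an EC20 dose of dopamine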
Target sequence (P14416 whole entry, looked up): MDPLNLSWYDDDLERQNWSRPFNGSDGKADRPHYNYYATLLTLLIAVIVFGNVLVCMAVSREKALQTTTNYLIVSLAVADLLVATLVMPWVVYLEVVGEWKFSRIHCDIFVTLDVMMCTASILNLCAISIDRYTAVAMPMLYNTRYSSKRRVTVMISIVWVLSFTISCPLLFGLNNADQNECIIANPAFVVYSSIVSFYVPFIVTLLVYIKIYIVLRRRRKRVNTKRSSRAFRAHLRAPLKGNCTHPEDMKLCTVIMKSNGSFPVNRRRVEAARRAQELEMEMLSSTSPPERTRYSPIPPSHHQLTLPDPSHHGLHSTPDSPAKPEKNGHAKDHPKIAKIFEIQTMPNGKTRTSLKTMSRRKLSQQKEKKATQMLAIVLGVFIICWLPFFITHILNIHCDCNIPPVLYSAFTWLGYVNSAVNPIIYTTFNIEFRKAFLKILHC
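PathHunter beta-arrestin assay in DiscoveRx D2 cells. Compounds were added with an EC20 of dopamine (50 nM final) for 90 min at 37 deg C. Luminescence was read 1 h after detection reagent, with 57 uM dopamine as the EC100 control.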
D2 agonist: agonists of human D2 dopamine receptor (beta-arrestin); activation, % (concentration not given with the values); AID 624465; P14416; DiscoveRx PathHunter D2 beta-arrestin, luminescence, 90 min; 100% = 57 uM dopamine signal; 360,000 tested, 0.084% active; in the data active = activation above about 40%; inconclusive = about 15% to 40%; inactive = below about 15%; note: compound concentration not given in the record; the text of the record calls up to 30% inactive
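DiscoveRx PathHunter D2 beta-arrestin cells (2,100/well) attached overnight, then compound-stimulated 90 min at 37 C in HBSS/10 mM HEPES/0.1% Tween-20 buffer; beta-galactosidase complementation read by luminescence after 1 h at ambient temperature. Dopamine 57 uM final (EC100) as control.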
Six1-Eya2 blk: inhibitors of human Six1/Eya2 interaction | activity change, % (concentration not given with the values) | Q15475+O00167 | AlphaScreen GST-Six1/His-Eya2 binding, biochemical; hits give low values; control for the full effect not named in the record | 360,000 tested, 0.56% active; in the data active = activity change below about -65%; inconclusive = about -30% to -65%; inactive = above about -30%; note: % is set by controls: 0 for no effect and ±100 for the full control effect
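GST-Six1 + His-Eya2 (5X stock: 250/500 nM); Tris pH 8.0, 300 mM NaCl, 0.05% BSA, 0.02% Tween 20; GSH donor/Ni acceptor beads; 1 h 37 °C dark; AlphaScreen readout.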
TRPML1 blocker: blocks the human TRPML1 channel; 390,000 tested, 0.02% active; TRPML1-inducible cells, Ca2+ dye fluorescence, FDSS; hits give low values; inhibition of EC80 agonist-evoked calcium signal; activity change, negative = inhibition, % (test concentration not listed); Q9GZU1; in the data active means activity change below about -50%; inconclusive means about -30% to -50%; inactive means above about -30%;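 note: stimulus is agonist 54-4 at its EC80 concentration; % is set by controls: 0 for no effect and ±100 for the full control effect; compound concentration not given in the record; the text of the record puts the active cut at -80%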
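Tet-induced TRPML1-DL cells loaded with Ca8 no-wash calcium dye were read kinetically on FDSS. Compound addition was followed by EC80 agonist 54-4 (4 uM final); inhibition was read over 110 s.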
An asterisk follows results filed as active; [ ] = another dose, or the depositor's remark.

For CS(=O)(=O)N1CCN(C(=O)c2ccc(F)cc2)CC1 the results were TRPML1 agonist 0.0, PINK1 modulator -1.4%[38.3 µM], D2 PAM -8, D2 agonist -0.7, Six1-Eya2 blk 4 and TRPML1 blocker -10.
Screening O=C(NCc1ccc(F)cc1)C(=O)Nc1ccc2nc3n(c(=O)c2c1)CCCCC3 returned TRPML1 agonist 4.3, PINK1 modulator 1.7% and TRPML1 blocker 15.
`C[C@H](NC(=O)c1nc[nH]c1C(=O)NCC(=O)OC(C)(C)C)C(=O)OC(C)(C)C` gave TRPML1 agonist -0.1, PINK1 modulator 1.1%, D2 PAM -4, D2 agonist -2.2, Six1-Eya2 blk 5 and TRPML1 blocker -5.
`O=C(NCCC1CCCCN1S(=O)(=O)c1cccs1)C(=O)Nc1cccc(F)c1` (configuration not stated) gave TRPML1 agonist -0.1, PINK1 modulator -1.1%, D2 PAM -16, D2 agonist -5.4, Six1-Eya2 blk -6 and TRPML1 blocker 17.
COc1ccc2c(c1)[C@H]1[C@H](CO2)[C@H](c2ccccc2)[C@]2(C)C(=O)Nc3ccc(C)cc3C(=O)N12 was read as TRPML1 agonist 1.3, PINK1 modulator 2.3%, D2 PAM -14, D2 agonist -2.1, Six1-Eya2 blk -12 and TRPML1 blocker 15.
For Cn1cnnc1SCc1ccc(-c2ccc(Br)cc2)o1 the results were TRPML1 agonist 0.1, PINK1 modulator 0.0%, D2 PAM 8, D2 agonist 1.4, Six1-Eya2 blk -7 and TRPML1 blocker 0.
Screening COc1cc(C(=O)O/N=C2\C=CC(=O)C=C2C)cc(OC)c1OC returned TRPML1 agonist 1.2, PINK1 modulator 0.9%, D2 PAM 0, D2 agonist 1.0, Six1-Eya2 blk -1 and TRPML1 blocker 13.
`Cc1cccc(Nc2c3c(nc4nncn24)CCC3)c1` gave TRPML1 agonist -0.5, PINK1 modulator -1.3% and TRPML1 blocker -1.
Screening O=C(CCCN1C(=O)/C(=C\c2cccs2)SC1=S)NNC(=O)c1ccncc1 returned TRPML1 agonist 1.4, PINK1 modulator 0.8%, D2 PAM 0, D2 agonist -1.5, Six1-Eya2 blk 1 and TRPML1 blocker -5.
`Cc1oc2c(CN(C)C)c(O)ccc2c(=O)c1-c1cscn1` gave TRPML1 agonist 1.3, PINK1 modulator 2.8%[38.3 µM], D2 PAM -19, D2 agonist -3.7, Six1-Eya2 blk 2 and TRPML1 blocker -15.
`O=C(NN1C(=O)C2C(C1=O)C1C=CC2C12CC2)c1ccncc1` (configuration not stated) gave TRPML1 agonist 0.6, PINK1 modulator 0.9%, D2 PAM -32, D2 agonist 0.1, Six1-Eya2 blk 6 and TRPML1 blocker 22.
`COC(CNC(=O)CSCc1nc(-c2ccc(SC)cc2)oc1C)OC` gave TRPML1 agonist -0.7, PINK1 modulator -0.6%, D2 PAM -5, D2 agonist 5.2, Six1-Eya2 blk -2 and TRPML1 blocker -1.
Screening Cc1c(C(=O)Nc2ccc(F)cc2F)oc2c1-c1nn(Cc3c(F)cccc3Cl)cc1CC2 returned TRPML1 agonist 2.6, PINK1 modulator 1.4% and TRPML1 blocker 74.
Screening Cc1ccc(S(=O)(=O)NNC2=NCCCCC2)cc1 returned TRPML1 agonist -0.5, PINK1 modulator 1.8%, D2 PAM -14, D2 agonist -2.9, Six1-Eya2 blk 7 and TRPML1 blocker -13.
Screening COc1ccc(C(=O)c2sc3nc(-c4ccc(OC)cc4)ccc3c2N)cc1 returned TRPML1 agonist 10, PINK1 modulator 20%, D2 PAM 3, D2 agonist -1.4, Six1-Eya2 blk 17 and TRPML1 blocker 1.

Pulled by compound from above (three):
Screening Cc1c(C(=O)Nc2ccc(F)cc2F)oc2c1-c1nn(Cc3c(F)cccc3Cl)cc1CC2 returned TRPML1 agonist 2.6, PINK1 modulator 1.4% and TRPML1 blocker 74.
`C[C@H](NC(=O)c1nc[nH]c1C(=O)NCC(=O)OC(C)(C)C)C(=O)OC(C)(C)C` gave TRPML1 agonist -0.1, PINK1 modulator 1.1%, D2 PAM -4, D2 agonist -2.2, Six1-Eya2 blk 5 and TRPML1 blocker -5.
For Cn1cnnc1SCc1ccc(-c2ccc(Br)cc2)o1 the results were TRPML1 agonist 0.1, PINK1 modulator 0.0%, D2 PAM 8, D2 agonist 1.4, Six1-Eya2 blk -7 and TRPML1 blocker 0.

Next part
`Cc1ccc2c(Cl)c(C)c(N3CCCCC3)nc2n1` gave TRPML1 agonist 1.4, PINK1 modulator -1.1%, D2 PAM 0, D2 agonist 3.1, Six1-Eya2 blk 3 and TRPML1 blocker -18.
CCOC(=O)CC(=O)Nc1ccc(Br)cc1C(=O)O was read as TRPML1 agonist 0.0, PINK1 modulator -1.0%, D2 PAM 1, D2 agonist 1.6, Six1-Eya2 blk 13 and TRPML1 blocker 8.
Screening Nc1nc2ncc(C(=O)c3cc(F)ccc3O)cc2s1 returned TRPML1 agonist 1.2, PINK1 modulator 0.0%, D2 PAM 0, D2 agonist -6.3, Six1-Eya2 blk -12 and TRPML1 blocker 8.
For CNC(=S)NNC(=O)c1oc2nc(-c3ccccc3)cc(C)c2c1N the results were TRPML1 agonist 1.1, PINK1 modulator -0.1%, D2 PAM -13, D2 agonist -5.1, Six1-Eya2 blk -14 and TRPML1 blocker 7.
`Cc1nc(-c2ccc(Cl)cc2)sc1CCNC(=O)Cc1ccc(F)cc1` gave TRPML1 agonist 2.8, PINK1 modulator 1.0% and TRPML1 blocker -2.
For O=C(c1cc2cccc([N+](=O)[O-])c2oc1=O)N1CCOCC1 the results were TRPML1 agonist -0.4, PINK1 modulator 0.4%, D2 PAM -19, D2 agonist -4.9, Six1-Eya2 blk 1 and TRPML1 blocker -2.
For CC(CCc1ccccc1)NC(=O)C1CCN(S(=O)(=O)c2ccc(F)cc2)CC1 (configuration not stated) the results were TRPML1 agonist -1.7, PINK1 modulator -0.7%, D2 PAM -7, D2 agonist 2.7, Six1-Eya2 blk 3 and TRPML1 blocker 12.
Screening COc1ccc(CN2C(=O)CN=C2Nc2cc(C)ccc2C)cc1 returned TRPML1 agonist 1.2, PINK1 modulator 1.7%, D2 PAM -7, D2 agonist 0.7, Six1-Eya2 blk 5 and TRPML1 blocker -15.
Screening CCOC(=O)N1CCN(c2ncnc3c2cnn3-c2ccc(OC)cc2)CC1 returned TRPML1 agonist 0.9, PINK1 modulator 3.4%, D2 PAM 9, D2 agonist 0.1, Six1-Eya2 blk 25 and TRPML1 blocker -3.
Screening Cc1ccsc1CN(C(=O)COc1cccc(C)c1C)C1CCS(=O)(=O)C1 (configuration not stated) returned TRPML1 agonist 0.5, PINK1 modulator 2.8% and TRPML1 blocker -3.
`Cc1cccc2c(=O)n(C(=O)c3ccccc3)c(N)nc12` gave TRPML1 agonist -0.1, PINK1 modulator 4.3%, D2 PAM -7, D2 agonist -10, Six1-Eya2 blk 0 and TRPML1 blocker -15.
Cc1nnc2n(-c3ccccc3)c(=O)c3c4c(sc3n12)CC(C)CC4 (configuration not stated) was read as TRPML1 agonist 0.2, PINK1 modulator -2.1%[38.3 µM], D2 PAM 3, D2 agonist 1.3, Six1-Eya2 blk 4 and TRPML1 blocker -4.
O=C(NNC(=O)C12CC3CC(CC(C3)C1)C2)c1ccccc1F was read as TRPML1 agonist 0.1, PINK1 modulator -0.6%, D2 PAM -7, D2 agonist 1.8, Six1-Eya2 blk -3 and TRPML1 blocker 6.
For CCOC(=O)C1=C[C@@H](C)N(S(=O)(=O)c2ccc(C)cc2)[C@H]1c1ccccc1 the results were TRPML1 agonist 0.4, PINK1 modulator 2.8%, D2 PAM 2, D2 agonist -1.6, Six1-Eya2 blk 5 and TRPML1 blocker -4.
C=CCn1c(O)c(C(CC)=Nc2ccccc2NC(=O)CC)c(=O)[nH]c1=O was read as TRPML1 agonist -0.8, PINK1 modulator -22%[38.3 µM], D2 PAM 5, D2 agonist -4.7, Six1-Eya2 blk 2 and TRPML1 blocker -4.
CCOc1ccc(-n2c(CCc3ccccc3)n[nH]c2=S)cc1 was read as TRPML1 agonist 1.9, PINK1 modulator 0.8%, D2 PAM -12, D2 agonist -3.0, Six1-Eya2 blk -18 and TRPML1 blocker 10.
`O=C(Cc1ccc(F)cc1)Nc1c2c(nn1-c1cccc(Cl)c1)CS(=O)C2` (configuration not stated) gave TRPML1 agonist -0.1, PINK1 modulator -1.4%, D2 PAM -5, D2 agonist -3.9, Six1-Eya2 blk -2 and TRPML1 blocker 44.
Screening Fc1ccccc1N1CCN(Cc2nc(-c3ccc(Cl)cc3Cl)no2)CC1 returned TRPML1 agonist 0.2, PINK1 modulator 2.7%, D2 PAM -2, D2 agonist 1.9, Six1-Eya2 blk 15 and TRPML1 blocker -5.
`CC(C)n1cnnc1SCC(=O)Nc1cccc(S(=O)(=O)N(C)c2ccccc2)c1` gave TRPML1 agonist 2.3, PINK1 modulator -0.6%, D2 PAM -8, D2 agonist -0.8, Six1-Eya2 blk 2 and TRPML1 blocker 0.
For O=C(CCS(=O)(=O)c1ccc(Br)cc1)Nc1ccc(F)cc1F the results were TRPML1 agonist 2.5, PINK1 modulator -1.1% and TRPML1 blocker -6.
Screening Cc1ccc(NC(=O)CN(C)C(=O)CSc2nc3ccccc3c(=O)n2Cc2ccco2)cc1 returned TRPML1 agonist 1.4, PINK1 modulator 4.4%, D2 PAM -23, D2 agonist -3.5, Six1-Eya2 blk -12 and TRPML1 blocker 7.
O=C(O)CC/C(=N/NC(=O)CNC(=O)c1ccc2c(c1)OCCO2)c1ccccc1 was read as TRPML1 agonist 1.8, PINK1 modulator 2.8%, D2 PAM -4, D2 agonist 2.1, Six1-Eya2 blk 5 and TRPML1 blocker 17.
Screening CC(=O)NNc1[nH]c2c(c(=O)c1[N+](=O)[O-])c(=O)n(C)c(=O)n2C returned TRPML1 agonist 2.0, PINK1 modulator -1.0%, D2 PAM 0, D2 agonist -4.5, Six1-Eya2 blk -1 and TRPML1 blocker 12.
`CCOc1ccc(N2C(=O)C3C4C=CC([C@H]5CC45)[C@@H]3C2=O)cc1` (some centres not stated) gave TRPML1 agonist 1.6, PINK1 modulator 1.3%, D2 PAM 7, D2 agonist 1.8, Six1-Eya2 blk -1 and TRPML1 blocker 11.
For CCOc1ccc(-c2csc(NC(=O)C3CCCO3)n2)cc1 (configuration not stated) the results were TRPML1 agonist 0.2, PINK1 modulator 1.3%[38.3 µM], D2 PAM -7, D2 agonist 2.1, Six1-Eya2 blk -2 and TRPML1 blocker -2.
Screening COc1cc(C(=O)NCC(c2ccco2)N2CCCC2)ccc1OCc1c(C)noc1C (configuration not stated) returned TRPML1 agonist -0.6, PINK1 modulator 2.0%, D2 PAM 0, D2 agonist -1.1, Six1-Eya2 blk 0 and TRPML1 blocker 1.

Screens: PubChem BioAssay, National Center for Advancing Translational Sciences (NCATS)
